TRPV1 potentiator: enhances activation of the human vanilloid receptor TRPV1. TRPV1-expressing cells, Fluo-8 calcium influx, capsaicin EC20 potentiation; host cell line not named in the record; control for the full effect not named in the record. 320,000 compounds, 0.02% hits. potentiation, % at 8.33 µM. AID 540277. Q8NER1; active means potentiation above 80%; inconclusive means 30% to 80%; inactive means below 30%; also: 0% is about no effect
Target sequence (Q8NER1 whole entry, looked up): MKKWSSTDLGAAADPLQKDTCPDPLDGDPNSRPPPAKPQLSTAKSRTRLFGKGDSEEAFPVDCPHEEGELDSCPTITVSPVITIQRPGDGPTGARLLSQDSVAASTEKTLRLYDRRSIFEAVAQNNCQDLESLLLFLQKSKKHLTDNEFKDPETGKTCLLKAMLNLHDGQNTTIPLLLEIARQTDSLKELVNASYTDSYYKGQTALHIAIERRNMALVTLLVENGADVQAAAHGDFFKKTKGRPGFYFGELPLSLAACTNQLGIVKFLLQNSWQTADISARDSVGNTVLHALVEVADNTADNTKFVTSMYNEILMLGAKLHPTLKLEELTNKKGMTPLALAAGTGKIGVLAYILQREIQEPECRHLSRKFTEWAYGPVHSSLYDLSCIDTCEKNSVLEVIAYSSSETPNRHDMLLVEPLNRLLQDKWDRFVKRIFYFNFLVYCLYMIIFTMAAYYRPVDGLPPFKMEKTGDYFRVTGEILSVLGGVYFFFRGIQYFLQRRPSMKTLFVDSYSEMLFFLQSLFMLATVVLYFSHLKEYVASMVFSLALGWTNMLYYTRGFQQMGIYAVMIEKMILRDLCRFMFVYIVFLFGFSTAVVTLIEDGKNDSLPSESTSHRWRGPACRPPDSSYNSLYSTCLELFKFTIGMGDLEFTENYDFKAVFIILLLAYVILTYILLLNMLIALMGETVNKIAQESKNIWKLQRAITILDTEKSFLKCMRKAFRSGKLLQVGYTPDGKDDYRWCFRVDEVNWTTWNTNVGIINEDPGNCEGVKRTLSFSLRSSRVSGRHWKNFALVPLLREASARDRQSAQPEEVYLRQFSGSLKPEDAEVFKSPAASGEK
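TRPV1-expressing cells were cultured overnight at 35.5C and loaded with Fluo-8 calcium dye for 40 to 90 min at room temperature. After a 10 s baseline, compound was added and calcium influx was read kinetically for 3 min (ex 480/em 520 nm).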
Menin MLL FP FL: inhibitors of human menin-MLL interaction, wild-type MLL peptide; Fluorescence polarization, fluorescein-MLL peptide displacement from menin; FP activity change, % at 61.4 µM; 290,000 tested, under 10 active; AID 1766; inconclusive = falling polarisation curve, or a change in total fluorescence; inactive = total fluorescence flat and polarisation flat or rising; no compound was filed as active; the % refers to the polarisation; negative = inhibition;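 also: % of control where 0% means no effect; inhibitors lower the polarisation; unlabelled MLL peptide was the positive control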
ClpP mod: qHTS Assay for Activators of ClpP | purified B. subtilis ClpP, FRET peptide cleavage, 20 min | Potency, µM (titrated, usually from 57.5 µM), for the others: at the top dose activity change, negative = active | 340,000 compounds, 1.9% hits | AID 651965, 2013; active = well fitted falling curve with a large enough effect; inconclusive = small, poorly fitted or top-dose-only effect; inactive = no such curve, though single readings can be large or run the other way; also: potency is read from the fitted curve at half-maximal effect; the source files actives as falling curves though it sought activators and does not explain the sign; nearly all actives have a fitted effect of over 65% in size; many hits overshoot -100%
Target sequence (P80244 whole entry, looked up): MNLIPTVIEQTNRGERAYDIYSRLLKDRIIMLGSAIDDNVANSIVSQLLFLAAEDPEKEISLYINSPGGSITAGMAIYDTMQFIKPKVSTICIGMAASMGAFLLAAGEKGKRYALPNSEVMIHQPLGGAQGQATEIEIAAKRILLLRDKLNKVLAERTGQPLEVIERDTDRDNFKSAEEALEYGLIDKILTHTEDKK
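Purified B. subtilis ClpP, 10 microg/mL final in Tris/HCl pH8 with KCl, BSA, glycerol and Tween-20, cleaved an Abz/nitrotyrosine-quenched decapeptide. Fluorescence (ex 320, em 430) was read at 0 and 20 min at room temperature. Delta was normalized to 5.8 microM ADEP and DMSO/no-enzyme controls.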
gsp agonist: gsp mutant agonism. gsp mutant cells, cAMP HTRF, 30 min; control for the full effect not named in the record. Potency, µM (top dose mostly 76.9 µM), inactives show at the highest dose activation (cAMP increase), usual class: activators. 340,000 compounds, 0.13% hits; active = well fitted activation curve with a large enough effect; inconclusive = small, poorly fitted or top-dose-only effect, or another doubt; inactive = no such curve, though single readings can be large or run the other way; cell line not stated here;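 also: phosphodiesterase inhibitor Ro 20-1724 added with compounds to block cAMP breakdown; potency is read from the fitted curve at half-maximal effect; nearly all actives have a fitted effect of over 60% in size; about a fifth of the inactives were tested at one dose only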
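Cells stably selected in G418 were plated at 2000/well, grown 16-24 hr, then given compounds in DMSO with the PDE inhibitor […] (300 uM solution added) for 30 min at 37C; cAMP was read by HTRF.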
Sfp inh: blocks B. subtilis Sfp PPTase activity | Q9F4F7 | Biochemical Sfp PPTase activity, qHTS | Potency, µM, for the others: max response, negative = inhibition, usual class: inhibitors | 310,000 compounds, 3.5% hits; active = well fitted inhibition curve with a large enough effect; inconclusive = small, poorly fitted or top-dose-only effect, or another doubt; inactive = no such curve, though single readings can be large or run the other way;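 also: the enzyme is Sfp with the accession as filed and its product quenches rhodamine fluorescence; potency is read from the fitted curve at half-maximal effect; 0% = enzyme reaction without inhibitor and -100% = no enzyme wells; top concentration of the series not given in the record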
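With Hepes-Na pH 7.6 buffer containing 10 mM MgCl2, Sfp (15 nM) modified BHQ-2-YbbR (12.5 uM) using rhodamine-CoA (5 uM). Two reads 30 minutes apart at 525/598 nm yielded each well's rate.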
TRPML1 blocker: blocks the human TRPML1 channel | 390,000 compounds, 0.02% hits | Q9GZU1 | activity change, negative = inhibition, % (concentration not given with the values) | AID 624415 | TRPML1-inducible cells, Ca2+ dye fluorescence, FDSS; active compounds read low; inhibition of EC80 agonist-evoked calcium signal; in the data active means activity change below about -50%; inconclusive means about -30% to -50%; inactive means above about -30%;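 also: stimulus is agonist 54-4 at its EC80 concentration; % is scaled to controls: 0 for no effect and ±100 for the full control effect; the text of the record puts the active cut at -80%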
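Calcium fluorescence in TRPML1-DL cells induced overnight with Tet: a 110 s read after compound pin addition, then a 110 s antagonist read after challenge with 54-4 at 4 uM final (EC80).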
gsp antagonist: antagonists of gsp mutant (McCune-Albright syndrome); gsp-mutant cells, cAMP HTRF, 30 min; control for the full effect not named in the record; AID 624288; Potency, µM (series often up to 76.9 µM), inactives show top-dose activity change, negative = inhibition, usual class: inhibitors; 340,000 compounds, 0.4% hits; active = falling curve of any shape with a large fitted effect; inconclusive = falling curve, mostly with a smaller effect; inactive = flat or rising curve; cell line not stated here;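 also: intracellular cAMP measured with PDE inhibitor Ro 20-1724 present during compound exposure; potency is read from the fitted curve at half-maximal effect; % is scaled to controls: 0 for no effect and ±100 for the full control effect; nearly all actives have a fitted effect of over 65% in size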
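Measurement of cellular cAMP by homogeneous time-resolved fluorescence following a 30 min compound exposure at 37C. The PDE inhibitor […] was present throughout; the assay buffer was DPBS with 0.05% BSA and 0.005% Tween 20.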
An asterisk follows results filed as active; i = inactive; ? = inconclusive; . = not tested or not shown; & = joins results of further samples; [ ] = dose if it differs, or a comment.

Below each compound: TRPV1 potentiator	Menin MLL FP FL	ClpP mod	gsp agonist	Sfp inh	TRPML1 blocker	gsp antagonist
- COc1ccccc1CC(Cc1nc2ccccc2[nH]1)c1nc2ccccc2[nH]1 (configuration not stated)
  -5.3	-10.4&-0.3	.	?	5.01µM*	-1.1	-19.2%
- O=C(Oc1ccc([N+](=O)[O-])cc1)C1CC(=O)N(c2ccc3c(c2)OCCO3)C1 (configuration not stated)
  .	.	?	23.3%	.	-8.1	6.4%
- Cc1ccc(N2CC(C(=O)Nc3ccc(N(C)C)cc3)CC2=O)cc1C (configuration not stated)
  -0.1	1.2	1.4%	-34.8%[inhibitor]	?	-11.0	-4.7%
- CSc1ncccc1C(=O)Nc1ccc(S(=O)(=O)NC2=NCCCCC2)cc1
  -16.4	-3.8	.	-4.7%	15.9%	3.2	-6.7%
- CC1CC1C(=O)Nc1nc2ccc(S(C)(=O)=O)cc2s1 (configuration not stated)
  -5.0	0.1	.	-16.7%	1.3%	19.1	0.4%
- CC(NC(=O)COC(=O)Cc1ccc(Cl)cc1)c1ccccc1 (configuration not stated)
  .	.	.	5.2%	.	0.3	6.2%
- O=C(Cc1ccccc1)N/N=C/c1cc(Br)c(Br)o1
  7.0	5.3	2.4%	-11.5%	-17.1%	-6.9	0.8%
- CC1(c2ccccc2)CC(C)(C)n2c(O)c(C3=NC(=S)NC3=O)c3cccc1c32 (configuration not stated)
  15.6	-5.3	2.6%	18.7%	8.8%	7.1	-8.2%
- N/C(=N\OC(=O)CSc1ccccc1)c1cccc([N+](=O)[O-])c1
  6.3	-0.4	-1.5%	2.3%	10.9%	-9.9	-12.2%
- O=C(/C=C/c1ccc([N+](=O)[O-])o1)NNC(=O)c1ccc(F)cc1
  7.1	.	-0.9%	10.6%	12.0%	0.9	-4.7%
- O=C(NN1C(=O)C2C3c4ccccc4C(c4ccccc43)C2C1=O)C1CC1 (configuration not stated)
  -2.9	1.8	.	?	22.1%	9.1	11.1%
- Cc1c(C)n(CC(O)CN2CCCCCC2)c2ccccc12 (configuration not stated)
  -4.2	2.6	?	-0.4%	10.1%	20.9	0.7%
- Cc1cc(C)c(C(=O)Nc2ccc(S(=O)(=O)Nc3ccccn3)cc2)c(C)c1
  8.1	-8.6	.	-1.2%	1.8%	-5.6	-0.7%
- CSCC[C@H](NC(=O)N1CCn2c1nc1ccccc12)C(=O)N[C@@H](C(=O)O)c1ccccc1
  -3.1	2.3	-0.5%	.	25.6%	.	-5.9%
- Nc1ccc(NC(=O)c2cccs2)cc1
  -2.6	-1.0	2.3%	-5.1%	-1.6%	-1.2	-2.3%
- CC(=O)c1c(C)[nH]c(C(=O)COC(=O)COc2ccccc2F)c1C
  4.5	.	-2.6%	?	.	-6.5	6.6%
- Cc1cc(-c2ccc(Cl)cc2)c(C#N)c(N)n1
  -1.1	-1.0	-26.4%	?	11.3%	14.5	12.1%
- CCN1CCN(c2ncnc3c2c(-c2ccccc2)cn3-c2ccc(F)cc2)CC1
  -8.3	3.1	.	-21.4%[15.4 µM]	39.8µM*	-9.2	-11.9%
- C=CCn1c(SCC(=O)c2c(N)n(C)c(=O)n(C)c2=O)nc2sc(CC)cc2c1=O
  -5.1	6.4	-1.2%	?	12.2%	-8.8	-1.1%
- Oc1ccc(Br)cc1CNn1cnnc1
  .	2.0	-0.5%	26.9%	6.1%	6.5	28.6%
- COCc1[nH]nc2c1C(c1ccsc1)C(C#N)=C(N)O2 (configuration not stated)
  -14.0	0.6	0.4%	?	0.9%	-20.2	8.8%
- O=C(c1cccc([N+](=O)[O-])c1)c1ccc2[nH]c(=O)[nH]c2c1
  7.8	-3.1	.	16.2%	-6.4%	-4.2	0.9%
- O=C(Nc1sc2c(c1C(=O)O)CCCC2)c1cccc(Cl)c1
  2.4	-0.9	0.9%	-33.2%[inhibitor]	-8.0%	22.1	?
- COc1ccc([C@H]2/C=C\CN(S(=O)(=O)/C=C/c3ccccc3)[C@@H](C)C(=O)N2Cc2ccc(F)cc2)cc1
  .	.	-0.5%	-19.0%	.	54.3	-7.6%
- CCN(c1ccccc1)S(=O)(=O)c1ccc(Cl)c(C(=O)OCC(=O)NC(=O)C(C)C)c1
  -11.7	-0.5	0.3%	-31.6%[inhibitor]	12.3%	50.7	-18.9%
- O=C(COc1ccc2ccccc2c1)Nc1cccc2c1C(=O)NC2=O
  6.1	-0.4	.	.	18.5%	.	.
- Nc1cc(=O)[nH]c(SC/C=C/c2ccccc2)n1
  .	1.5	-1.6%	-21.4%	2.8%	4.8	-7.3%
- COc1cc(NC(=O)CCc2nc(-c3cccs3)no2)cc(OC)c1OC
  21.7	4.0	-2.5%&0.5%	21.2%	17.0%	-10.0&-3.2	-9.1%
- Cc1cc(NC(=O)c2ccccc2C)ccc1NC(=O)c1ccccc1Cl
  ?	-2.0	3.4%	1.5%	8.1%	-21.3	1.2%
- O=C(CCCCCCN1C(=O)c2ccccc2C1=O)N1CCC(c2ccccc2)C1 (configuration not stated)
  22.2	2.6	0.7%	-10.6%[15.4 µM]	-12.6%	2.8	-16.4%
- COc1ccc(Nc2ncc(C(=O)O)c3ccccc23)cc1
  2.7	0.0	-2.2%	5.1%	12.0%	-3.6	-6.0%
- CC(C)CC1(C)NC(=O)N(CC(=O)N2C(C)CCCC2C)C1=O (configuration not stated)
  3.7	.	-2.6%	-0.1%	.	-7.7	6.5%
- Cc1cc(C)nc(SCC(=O)Nc2nonc2N)n1
  -4.5	-14.1	1.7%	9.5%	9.6%	-1.7	-4.4%
- CC1CCc2c(sc3nc(CN4CCOCC4)nc(Sc4ccccc4)c23)C1 (configuration not stated)
  7.2	1.1	0.2%	-16.7%	-26.9%	35.8	-19.3%
- CC1(C)CC(=O)C2=C(C1)O[C@@]1(CCCCN3C(=O)c4ccccc4C3=O)Cc3ccccc3C2O1
  i	-0.3[11.7 µM]	.	.	2.6%	.	.
- Cc1ccc2sc(N(CCN(C)C)C(=O)/C=C/c3cccs3)nc2c1C
  ?	.	-2.5%	1.1%	5.0%	-4.6	-3.4%
- COc1ccc(C2(CNC(=O)c3ccc(OCC(C)C)cc3)CCOCC2)cc1
  7.0	1.5	-0.2%	0.0%	7.2%	25.4	-11.9%
- Cc1cc(C(=O)NCc2ccco2)sc1C
  -9.7	.	0.6%	20.8%	.	-23.8	1.9%
- Cc1c(NC(=O)Nc2ccc(Cl)cc2)c(=O)n(-c2ccccc2)n1C
  24.3	-7.0	-0.1%	-18.7%	6.7%	3.8	4.6%
- Cc1ncc2c(c1OC(=O)c1ccc([N+](=O)[O-])cc1)COC(C)(C)OC2
  -36.5	0.0	16.0%	10.3%	-4.6%	4.6	5.5%
- Cc1ccc(C)c(NC(=O)Cn2nc(C(F)(F)F)cc2C2CC2)c1
  -13.7	1.3	-2.7%	21.7%	13.1%	4.3	4.9%
- COCCNC(=O)C(c1ccc(O)cc1)N(Cc1ccccc1)C(=O)CCC(=O)Nc1ccccn1 (configuration not stated)
  4.3	.	.	-2.0%[15.4 µM]	-2.8%	-0.6	2.2%
- COC(=O)C1=C(C)N(C)C(C)=C(C(=O)OC)C1c1ccccn1
  ?	-3.3	-2.3%	0.3%	8.0%	-11.8	0.6%[15.4 µM]
- Cc1ccc(SCc2[nH]nc3c2C(c2ccco2)C(C#N)=C(N)O3)cc1 (configuration not stated)
  -6.9	4.6	0.0%	-29.0%	-9.8%	-3.2	-5.8%
- CCOc1ccc(-c2n[nH]c(C)c2Oc2ccc(OC)cc2)c(O)c1
  3.1	1.4	-4.8%	4.4%	7.0%	-16.7	-15.4%
- COc1cc2c(cc1OC)C(C)N(S(=O)(=O)c1cn(C)c(C)n1)CC2 (configuration not stated)
  2.7	3.9	.	6.1%	-0.3%	12.8	8.5%
- COc1ccc(CCC(=O)OCC(=O)Nc2ccccc2)cc1
  -3.7	-0.5	.	2.8%	-3.1%	-9.9	-2.0%
- COc1ccc(Cn2c(=S)[nH]c3cc(OC)c(OC)cc3c2=O)cc1
  -3.2	4.4	-1.0%	-31.2%[15.4 µM]	5.9%	-7.1	-8.9%
- Cn1c(=O)[nH]c(=O)c2c1nc(N1CCCCC1)n2CCSc1ncccn1
  .	.	0.7%	15.8%	.	-4.9	-1.3%
- CCCN1C(=O)SC(CC(=O)Nc2cccc3ccccc23)C1=O (configuration not stated)
  -3.0	2.2	-4.4%	-25.7%	-5.5%	2.4	-14.9%
- Cc1nn(C(C)C(=O)NCCN2CCCCCC2)c(=O)c2nn(-c3ccccc3)c(C)c12 (configuration not stated)
  -4.2	.	-5.5%	3.2%	0.6%	-6.5	9.2%
- Cc1ccc(N(C(=O)CCC(=O)Nc2cc(C)on2)C(C(=O)NC2CCCC2)c2cccs2)cc1 (configuration not stated)
  -5.5	-0.8	-0.4%	10.5%	11.5%	-10.7	-19.7%

From PubChem BioAssay
